Screening data as filed in PubChem BioAssay.
GIRK2 act: activators of human GIRK2 potassium channels. 63,000 tested, 0.05% active. calls only for hits at 25 µM. P48051. HEK293-GIRK2 thallium flux, Thallos fluorescence. AID 1259325;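 active = among the strongest 0.2% of first-round signals and kept after retests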;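 also: first round at about 10 µM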
Target sequence (P48051 whole entry, looked up): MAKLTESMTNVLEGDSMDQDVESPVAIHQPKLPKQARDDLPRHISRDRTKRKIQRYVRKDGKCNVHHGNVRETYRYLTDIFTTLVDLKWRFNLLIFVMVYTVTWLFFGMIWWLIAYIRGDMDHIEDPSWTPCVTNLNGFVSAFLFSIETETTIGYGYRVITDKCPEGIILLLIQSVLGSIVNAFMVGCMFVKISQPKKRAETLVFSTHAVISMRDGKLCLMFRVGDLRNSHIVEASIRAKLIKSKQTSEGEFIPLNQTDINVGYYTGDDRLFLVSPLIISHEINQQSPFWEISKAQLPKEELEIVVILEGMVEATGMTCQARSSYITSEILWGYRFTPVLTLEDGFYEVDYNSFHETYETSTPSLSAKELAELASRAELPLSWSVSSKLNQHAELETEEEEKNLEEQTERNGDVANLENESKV
Calls only; i = inactive.

GIRK2 act	Compound
i	COc1cccc(CCNC(=O)C2(c3cccs3)CCCC2)c1
i	CC(C)c1ccc(OCC(=O)N(Cc2ccsc2)CC(F)(F)F)cc1
i	Cc1ccc(Nc2ccc(NS(=O)(=O)c3cc(F)ccc3C)cc2)nn1
i	O=C(NCC(O)(c1ccccc1)C1CC1)C(=O)Nc1ccc(OC(F)(F)F)cc1 (centres undefined)
i	O=C(Nc1cccc(N2CCCC2=O)c1)c1nc2ccccc2s1
i	COC(=O)c1ccc(S(=O)(=O)Nc2ccc(-n3nnc(C(N)=O)n3)cc2)cc1
i	Fc1ccc(F)c(CN2CCN(Cc3nncn3-c3ccccc3F)CC2)c1
i	CNC(=O)Cn1nnn(-c2ccc(NC(=O)C3(c4ccccc4)CCOCC3)cc2)c1=O
i	O=C(Nc1nc(C(=O)N2CCN(c3ccc(F)cc3)CC2)co1)c1cnccn1
i	CC(=O)Nc1ccc(S(=O)(=O)NCCn2cncn2)cc1
i	Cc1ccc(=O)n(C(C)C(=O)N2CCN(c3ccccc3)CC2)n1 (centres undefined)
i	COc1ccc(-c2noc(-c3nn(-c4ccc(C)c(C)c4)ccc3=O)n2)cc1
i	Cn1cc(-c2ccco2)nc1CCNC(=O)/C=C/c1ccco1
i	COc1ccc(C(=O)Oc2cc(C)c3c(c2)O/C(=C\c2ccncc2)C3=O)cc1
i	O=C(Cn1nnc(-c2ccccc2)n1)NC1CCCCC1
i	O=C(NCc1nc(-c2ccccc2)no1)c1ccc(Cn2ccnc2)cc1
i	O=c1cc(-c2cc3cc([N+](=O)[O-])ccc3o2)c2cc(Cl)ccc2o1
i	Cc1nnc(SCC(=O)c2ccccc2)c2c1cnn2-c1ccc(F)cc1
i	CCOC(=O)c1ccccc1NC(=O)Cn1cnc2c(-c3ccc(OC)cc3)csc2c1=O
i	COc1cc2[nH]c(=S)[nH]c(=O)c2cc1OC

GIRK2 act	Compound
i	Cn1c(=O)c2c(nc(Nc3ccc(C(N)=O)cc3)n2CC(=O)O)n(C)c1=O
i	Cc1ccc(S(=O)(=O)N2CCCCC2CC(=O)NC2CCCCC2)cc1 (centres undefined)
i	COc1ccc(CCNC(=O)C(=O)Nc2cc(C)nc3ccccc23)cc1OC
i	COc1ccc(S(=O)(=O)NCCC(N)=O)cc1N(C)S(C)(=O)=O
i	COc1ccc(OC)c(S(=O)(=O)Nc2cnc(N3CCOCC3)nc2)c1
i	COc1cccc(CNC(=O)c2sccc2S(=O)(=O)N2CCN(c3ccc(F)cc3)CC2)c1
i	CCCCCCCC(=O)C1=C2C=C3C=C(/C=C\C(=O)O)N(C4C(O)OC(CCCCCCCCCCCCCCCC(C)(O)C(=O)O)C(O)C4O)C=C3C(=O)C2(C)OC1=O (centres undefined)
i	O=c1ccc(-c2ccccc2)nn1Cc1nc(-c2cccc(Cl)c2)no1
i	COc1ccc(-n2c(C)c(C)n3c4c(=O)n(CCc5ccccc5)c(=O)n(C)c4nc23)c(OC)c1
i	O=C(NCc1cccc2ccccc12)N1CCC(Oc2ccccn2)CC1
i	O=C(COc1ccc2ccccc2c1)Nc1ccc2scnc2c1
i	Cc1noc(CNC(=O)C2CCN(C(=O)Nc3ccccc3)CC2)n1
i	Cc1nc(C)c(-c2nnc(NC(=O)C3CCN(S(C)(=O)=O)CC3)o2)s1
i	Cc1nc2ccccc2c(=O)n1-c1ccc(F)c(NC(=O)COc2ccccc2)c1
i	CCCN1CCCc2cc(CCNC(=O)c3ccc(OC)cc3)ccc21
i	CCCCC(=O)Oc1ccccc1C(=O)O
i	CCc1ccc(NC(=O)Cn2ncn3nc4c(c3c2=O)CCCC4)cc1
i	COCCCNC(=O)CCCCCn1c(=S)[nH]c2cc3c(cc2c1=O)OCO3
i	C=CCn1c(=O)c2ccc(C(=O)NC(C)C)cc2n2c(=O)n(CC(=O)NC(C)C)nc12
i	CCc1nccn1CC1CCN(C(=O)c2ccc(F)c(F)c2)CC1

GIRK2 act	Compound
i	CCOC(=O)CNC(=O)c1cc2c(=O)n3cccc(C)c3nc2n1CCCOC
i	O=C(CN1C(=O)CCC1=O)NCC1CCN(C(=O)c2ccoc2)CC1
i	CN1CCN(c2ccc(-c3ccc(NC(=O)NC4CCCCC4)cc3)nn2)CC1
i	Cc1ccccc1NC(=O)CSc1nccn1-c1cccc(C(=O)NCc2ccco2)c1
i	COc1cc(NC(=O)c2nnn(Cc3nc(-c4cccc(C)c4)oc3C)c2N)cc(OC)c1
i	O=C(NCc1ccc2c(c1)OCO2)C1CCN(c2ccc(-c3cccnc3)nn2)CC1
i	Cc1cc(C)n(-c2ccc(C(=O)Nc3ccccc3C(N)=O)nn2)n1
i	O=S(=O)(NCCC(O)c1ccccc1)c1ccc2c(c1)CCCC2 (centres undefined)
i	Cc1nn(-c2ccccc2)c(C)c1N1CCN(C(=O)Nc2ccccc2F)CC1
i	CCOc1ccc(-c2nc(Cn3nnc(C(=O)Nc4cc(OC)cc(OC)c4)c3N)c(C)o2)cc1
i	COc1cccc(C2C(C(=O)c3sc(C)nc3C)=C(O)C(=O)N2CCCN(C)C)c1 (centres undefined)
i	O=C(/C=C/c1ccc2c(c1)OCO2)NCC1CCN(Cc2cccs2)CC1
i	COc1c2c(c(C)c3c1C(=O)OC3)O[C@@]1(C)CC[C@@]3(O)C(C)(C)OC(=O)CC[C@]3(C)[C@H]1C2
i	Cc1ccc2nc(N3CCN(C(=O)Nc4ccc5c(c4)OCO5)CC3)sc2c1
i	Cc1ccc(-n2nnc(C(=O)NCc3ccc4c(c3)OCO4)c2-c2cccnc2)cc1
i	O=c1c(NCc2ccc(Cl)cc2)nccn1-c1cccc(C(F)(F)F)c1
i	Cc1nnc(C2CCN(CC(=O)NCc3ccco3)CC2)s1
i	O=c1[nH]c(N2CCN(c3ccccn3)CC2)nc2c(-c3ccc(Cl)c(Cl)c3)csc12
i	O=C(NCC1CCN(C(=O)c2cccnc2)CC1)c1cccc2ccccc12
i	CC(C)(C)c1csc(CN2CCN(C(=O)c3cccc(C(F)(F)F)c3)CC2)n1

GIRK2 act	Compound
i	Cc1nc(Nc2ccc(C(=O)O)cc2)c2c(C)c(C)sc2n1
i	COC(=O)c1ccc(C(=O)OC)c(NC(=O)C2(C)Cc3ccc(C)cc3C(=O)O2)c1 (centres undefined)
i	COc1cc(C(=O)Nc2cc(-c3cccs3)nn2-c2nc(C(C)C)cc(=O)[nH]2)cc(OC)c1OC
i	COc1cc(C(=O)Nc2ccc(-n3c(C)nc4ccccc4c3=O)cc2)cc(OC)c1OC
i	CC(C)c1cc(Br)ccc1OCCCC(=O)O
i	Cc1c(N=C/C=C/c2ccc([N+](=O)[O-])cc2)c(=O)n(-c2ccccc2)n1C
i	Cc1nc(C)c(-c2nnc(NC(=O)c3cnn(-c4ccccc4)c3C)o2)s1
i	O=C(/C=C/c1ccco1)NCCC(O)c1ccoc1 (centres undefined)
i	CS(=O)(=O)N1CCC(C(=O)N(CCc2cccs2)Cc2ccco2)CC1
i	O=C(Nc1ccccn1)c1ccc(Cl)c(S(=O)(=O)N2CCCC2)c1
i	O=C(CCCCCn1c(=S)[nH]c2cc3c(cc2c1=O)OCO3)N1CCN(Cc2ccccc2)CC1
i	CCc1cc2c(=O)c(-c3ccc4c(c3)OCCO4)coc2cc1OCC(N)=O
i	O=S(=O)(Nc1cccc(Cl)c1)c1ccc2nncn2c1
i	O=C(CSc1cc(-n2cccn2)ncn1)NCc1ccc(Cl)cc1
i	Cc1ccc(C)c(NC(=O)Cn2c(=O)nc(-c3ccccc3)c3cc(Cl)ccc32)c1
i	CC(C)(C)c1cc(NCCOCCO)n2ncc(-c3ccccc3Cl)c2n1
i	O=C(NCc1ncc(-c2ccccc2)[nH]1)c1ccno1
i	CC(=O)O[C@@H]1[C@@H](OC(=O)/C=C/c2ccccc2)[C@H](C)O[C@@H](O[C@H]2[C@@H]3C=CO[C@@H](O[C@@H]4O[C@H](CO)[C@@H](O)[C@H](O)[C@H]4O)[C@@H]3[C@@]3(CO)O[C@@H]23)[C@@H]1OC(C)=O
i	Cc1cccc2sc(OC3CN(C(=O)c4ccc5nsnc5c4)C3)nc12
i	O=C1OC2CC1N(C(=O)C1(c3ccc(Cl)cc3)CCCC1)C2 (centres undefined)

GIRK2 act	Compound
i	COc1ccc(Cl)cc1NC(=O)CN1C(=O)NC2(CCCCC2C)C1=O (centres undefined)
i	CCCCn1c(=O)c2ccccc2n(Cc2nc(-c3cc(OC)cc(OC)c3)no2)c1=O
i	COc1ccc(-c2nc(-c3nnn(Cc4ccc(C)cc4)c3C)no2)cc1OC
i	O=C(Oc1ccc2cc(-c3nc4ccccc4o3)c(=O)oc2c1)c1cccs1
i	O=C(c1cnc2ccccc2n1)N1CCC2(CC1)OCCS2
i	COc1cc(/C=C2\Oc3cc(OS(=O)(=O)c4ccccc4)ccc3C2=O)cc(OC)c1OC
i	CCn1nc(C)c(CNC(=O)Cn2cnc3c([nH]c4cc(OC)c(OC)cc43)c2=O)c1C
i	COc1ccccc1NC(=O)N1CC(Oc2nc3c(OC)cccc3s2)C1
i	Cc1cc(C(=O)N2CCN(c3nc4ccc(OC(F)(F)F)cc4s3)CC2)c(C)o1
i	O=C(c1cc(-c2ccc(F)cc2)n[nH]1)N1CCC(c2nnc(-c3ccco3)o2)CC1
i	Cn1cc(-c2ccco2)nc1CCNC(=O)c1cccn(C)c1=O
i	Cc1cc(-n2cc(C(=O)N3CCC(NC(=O)CC4CCCCC4)CC3)nn2)ccc1F
i	CN(C)C(=O)c1ccc(S(=O)(=O)N(Cc2ccco2)C2CC2)o1
i	Cn1c(=O)n(CC(=O)O)c(=O)c2c1nc1n2CCCN1c1ccc(Br)cc1
i	Cc1ccc(/C=C/C(=O)N2CCC3(O)CCCCC3C2)cc1 (centres undefined)
i	CSCCC(C)(O)CNC(=O)C1CC1 (centres undefined)
i	COc1ccc(NC(=O)CCSc2nc(C)cc(C(F)(F)F)c2C#N)cc1
i	O=C(C1CCCO1)N1CCN(c2ccc(-n3cccc3)nn2)CC1 (centres undefined)
i	COC(=O)c1ccc(OC)c(Cn2cnc3c(-c4ccccc4C)csc3c2=O)c1
i	CCOC(=O)C1=C(C)NC(=O)NC1c1ccc(N(C)C)cc1 (centres undefined)

Given as tab-separated lines: 15 of the compounds above.
SMILES	GIRK2 act
O=C(c1cnc2ccccc2n1)N1CCC2(CC1)OCCS2	i
COc1cc(/C=C2\Oc3cc(OS(=O)(=O)c4ccccc4)ccc3C2=O)cc(OC)c1OC	i
CCn1nc(C)c(CNC(=O)Cn2cnc3c([nH]c4cc(OC)c(OC)cc43)c2=O)c1C	i
COc1ccccc1NC(=O)N1CC(Oc2nc3c(OC)cccc3s2)C1	i
Cc1cc(C(=O)N2CCN(c3nc4ccc(OC(F)(F)F)cc4s3)CC2)c(C)o1	i
O=C(c1cc(-c2ccc(F)cc2)n[nH]1)N1CCC(c2nnc(-c3ccco3)o2)CC1	i
Cn1cc(-c2ccco2)nc1CCNC(=O)c1cccn(C)c1=O	i
Cc1cc(-n2cc(C(=O)N3CCC(NC(=O)CC4CCCCC4)CC3)nn2)ccc1F	i
CN(C)C(=O)c1ccc(S(=O)(=O)N(Cc2ccco2)C2CC2)o1	i
Cn1c(=O)n(CC(=O)O)c(=O)c2c1nc1n2CCCN1c1ccc(Br)cc1	i
Cc1ccc(/C=C/C(=O)N2CCC3(O)CCCCC3C2)cc1 (centres undefined)	i
CSCCC(C)(O)CNC(=O)C1CC1 (centres undefined)	i
COc1ccc(NC(=O)CCSc2nc(C)cc(C(F)(F)F)c2C#N)cc1	i
O=C(C1CCCO1)N1CCN(c2ccc(-n3cccc3)nn2)CC1 (centres undefined)	i
COC(=O)c1ccc(OC)c(Cn2cnc3c(-c4ccccc4C)csc3c2=O)c1	i

Carrying on:
GIRK2 act	Compound
i	Cc1cc(C)c2sc(NC(=O)c3ccc(S(=O)(=O)N4CCCCC4)cc3)nc2n1
i	CCCCNC(=O)c1nnn(-c2ccc(C)c(C)c2)c1-c1ccncc1
i	CS(=O)(=O)Nc1ccccc1C(=O)/C=C/c1c(F)cccc1Cl
i	Cc1cc(=O)[nH]c(-n2nc(C3CC3)cc2NC(=O)/C=C\c2ccc3c(c2)OCO3)n1
i	O=C(NC1CCCC1)C1CCN(c2ccc(-n3cccn3)nn2)CC1
i	CCn1nccc1C(=O)N=c1sc2c(C)ccc(OC)c2n1C
i	CN(C)CCOC(=O)c1ccc2c(c1)C(=O)c1ccccc1-2
i	COc1ccccc1NC(=O)Cn1nc2c(C)c(C)nc(C)n2c1=O
i	COc1ccc(C(CNS(=O)(=O)c2ccc(F)cc2C)N2CCN(C)CC2)cc1 (centres undefined)
i	CCOC(=O)C(=O)N1CCN(c2ccc(-c3noc(C(F)(F)F)n3)cn2)CC1
i	O=c1cc(CN2CCN(Cc3ccc4c(c3)OCO4)CC2)c2cc3c(cc2o1)CCC3
i	O=C(c1cc(=O)c(OCc2ccccc2)co1)N1CCN(c2ncccn2)CC1
i	O=C(NC1(c2nc(-c3cccnc3)no2)CCCCC1)c1ccco1
i	C=CCNC(=O)c1cc(-c2ccc(Cl)cc2Cl)oc1C
i	CC(C)N1CCc2c(sc(NC(=O)c3ccc(Cl)s3)c2-c2nc3ccccc3s2)C1
i	O=S(=O)(c1ccc(Br)cc1)c1nc(-c2ccccc2)oc1N1CCOCC1
i	O=C(c1ccccc1SC(F)F)N1CCN(Cc2nnnn2-c2ccccc2)CC1
i	Cc1cccn2c(=O)cc(OCC(=O)NCc3ccc(F)cc3)nc12
i	CC(O)(CNC(=O)/C=C/c1ccco1)c1cccs1 (centres undefined)
i	Cc1ccsc1/C=C1\Oc2c(ccc3c2CN(CC2CCCO2)CO3)C1=O (centres undefined)

GIRK2 act	Compound
i	CCNc1nc2c(c(=O)[nH]c(=O)n2C)n1CC(=O)c1ccccc1
i	Cn1cc(-c2ccco2)nc1CCNC(=O)Nc1ccccc1Cl
i	CCSc1nnc(NC(=O)c2coc(NC(=O)c3cc(C)on3)n2)s1
i	Cc1ccccc1NC(=O)NCCOc1cc(N2CCCC2)ncn1
i	CC(C)(O)c1nc2ccccc2n1Cc1ccccc1
i	COc1ccc(/C=C2\Oc3cc(OCC(=O)OC(C)(C)C)ccc3C2=O)cc1
i	O=S(=O)(c1c(F)cccc1F)N1CCN(CC(O)C2CC2)CC1 (centres undefined)
i	COc1cccc(-n2c(=O)[nH]c3c(C(N)=O)nc(-c4ccc(O)cc4)nc32)c1
i	CCS(=O)(=O)NCC1CCC(C(=O)NCCc2c[nH]c3ccccc23)CC1 (centres undefined)
i	Cc1ccc2c(Nc3ccc(S(N)(=O)=O)cc3)c(C(=O)OC(C)C)cnc2n1

These rows are one share of the data; count on the stated rates, not on these rows.
